Screening results (PubChem)
Vaccinia Venus: qHTS for Stage-Specific Inhibitors of Vaccinia Orthopoxvirus: Venus Reporter Primary qHTS. hit rate 0.46% among 330,000. AID 720580, 2013. Potency, µM (highest dose often 36.5 µM), without a hit: at the highest dose activity change, negative = inhibition, usual class: inhibitors. Vaccinia virus Venus reporter expression, fluorescence; active means well fitted inhibition curve with a large enough effect; inconclusive means small, poorly fitted or top-dose-only effect; inactive means no such curve, though single readings can be large or run the other way; tested in A549 cells; also: nearly all actives have a fitted effect of over 30% in size; inactives centre near -10
VACV mCherry inh: qHTS for Stage-Specific Inhibitors of Vaccinia Orthopoxvirus: mCherry Reporter Primary qHTS | Vaccinia virus mCherry reporter infection, fluorescence; about a quarter of the inactives have no number | Potency, µM (series often up to 36.5 µM), inactives show at the highest dose activity change, negative = inhibition, actives largely listed as inhibitors | hit rate 0.63% among 310,000 | AID 720579, 2013; active = well fitted inhibition curve with a large enough effect; inconclusive = small, poorly fitted or top-dose-only effect; inactive = no such curve, though single readings can be large or run the other way; tested in A549 cells; also: nearly all actives have a fitted effect of over 35% in size; inactives centre near -10
* marks the source's active call; other numbers are inactive results; i = inactive; ? = inconclusive; · = no result given; & = joins results of further samples. % is scaled to controls: 0 for no effect and ±100 for the full control effect; potency is read from the fitted curve at half-maximal effect.

SMILES | Vaccinia Venus | VACV mCherry inh
CCOC(=O)c1cc2c(=O)n3ccccc3nc2n(Cc2ccco2)c1=NC(=O)c1cccc(C)c1 | -19% | -28%
COc1cccc(CC2(CO)CCCN(Cc3cn[nH]c3-c3cc(C)ccc3C)C2)c1 (stereo not drawn) | -3% | -2%
CCOC(=O)c1[nH]c2c(c1C)C(=O)CC(c1ccc(OCC)c(OC)c1)C2 (stereo not drawn) | -33% | ·
COCCN(C(=O)COC(=O)c1cnc(C)cn1)c1c(N)n(Cc2ccccc2)c(=O)[nH]c1=O | -11% | -24%
COc1ccccc1NC(=O)NNC(=O)CCc1ccccc1 | -6% | -13%
C#CCOCCOCCOCCNc1nc(N2CCN(C(=O)Cn3cc(CCO)nn3)CC2)nc(N2CCN(C(=O)Cn3cc(CC(C)O)nn3)CC2)n1 (stereo not drawn) | -4% | i
CCCOc1ccc(C(=O)NC(=S)N2CCN(c3cc4c(cc3F)c(=O)c(C(=O)O)cn4CC)CC2)cc1 | -3% | -19%
O=C1c2cccc3c2N(CCC3)C(=O)C1(F)c1ccccc1 (stereo not drawn) | -12% | -5%
COc1ccc(-c2onc(C)c2-c2ccc(C(=O)OC(C)C)o2)c(O)c1 | ? | ?
O=C1OC(Nc2ccc3ncccc3c2)c2ccccc21 (stereo not drawn) | -12% | -25%
CCN(CC)S(=O)(=O)c1cc(NC(=O)c2ccc(-n3cncn3)c([N+](=O)[O-])c2)ccc1C | ? | -19%
COC(=O)c1ccc(CSc2nnc(NC(=O)C3CC(=O)N(c4ccc5c(c4)OCCO5)C3)s2)cc1 (stereo not drawn) | -9% | -5%
NNC(=O)c1sc2cc(C(F)(F)F)cnc2c1-c1cccnc1 | -5% | -6%
CC1CCCCN1C(=O)CSc1nnc(-c2ccco2)o1 (stereo not drawn) | 2% | 1%
C[C@H]1COC(=O)[C@H](Cc2ccc(F)cc2)C/C=C\C[C@H](CC(=O)NCCO)C(=O)N1 | -6% | i
O=C(NCc1ccccc1)c1cc(S(=O)(=O)N2CCCCC2)ccc1N1CCOCC1 | -23% | -20%
Cc1ccc(/C=C2/CCc3c([nH]c4ccccc34)C2=O)cc1 | -11% | i
O=C(O)c1cccc(NC(CNS(=O)(=O)c2ccc(Cl)cc2)c2ccccc2)c1 (stereo not drawn) | -1% | 12%
Cc1ccccc1N1CCN(C2CCCN(C(=O)c3ccsc3)C2)CC1 (stereo not drawn) | -12% | -22%
CCOc1ccccc1C(=O)NC(C(=O)OCC(=O)Nc1nnc(-c2ccccc2)o1)C(C)C (stereo not drawn) | -4% | ·
BrC(/C=N/Nc1nc(N2CCOCC2)nc(N2CCOCC2)n1)=C/c1ccccc1 | -8% | -27%
CC(=O)NS(=O)(=O)c1ccc(NC(=O)C(Sc2ccccc2)c2ccccc2)cc1 (stereo not drawn) | 1% | ·
Cc1nc2ccccc2c(=O)n1CCN1CCOCC1 | -5% | i
Cc1c(OC(C)C(=O)N[C@@H](Cc2ccccc2)C(=O)O)ccc2c3c(c(=O)oc12)CCCC3 (stereo partly drawn) | -5% | -10%
COc1cc(O)oc1C=Nc1ccc(Oc2ccccc2)cc1 | -14% | -14%
CC(C)c1ccc2c(c1)NC(c1ccncc1)=NC(c1cccs1)=N2 | -7% | -10%
Cc1ccc(-c2cc(C(=O)Nc3ccc(S(=O)(=O)Nc4cc(C)on4)cc3)c3ccccc3n2)c(C)c1 | -16% | ·
O=C(NCCCN1CCOCC1)c1onc(CSc2nc3ccccc3[nH]2)c1C(=O)NCCCN1CCOCC1 | -20% | -22%
CCOC(=O)c1ccc(-c2c(-c3ccc4c(c3)OCO4)noc2-c2ccsc2)cc1F | -1%&-5% | i
O=C(COC(=O)c1ccc(Cl)nc1)Nc1ccc(N2CCOCC2)cc1 | -5% | -27%
O=C(NCc1ccccc1)C1CCCN(S(=O)(=O)c2cccc3nonc23)C1 (stereo not drawn) | -2% | -9%
COCCCNC(=O)C(=O)N/N=C/c1cc2c(cc1Br)OCO2 | -15% | -12%
CCOP(=O)(OCC)/C(C#N)=C/c1ccoc1 | 0% | i
CCC(=O)c1ccc(OCC(=O)OC(C)C(=O)NCc2ccc3c(c2)OCO3)cc1 (stereo not drawn) | -9% | -11%
O=C(CC1C(=O)NCCN1C/C=C/c1ccccc1)NCCc1cccnc1 (stereo not drawn) | -6% | -7%
Cc1c(CCOC(=O)c2ccccc2)sc[n+]1Cc1ccccc1 | 5% | -4%
COc1ccc(-c2nc3sc(CCNC(=O)C(=O)Nc4cc(F)ccc4F)c(C)n3n2)cc1 | -7% | -3%
O=C(C[n+]1cc(-c2ccccc2)n2c1CCCCC2)c1ccc(Cl)cc1 | -13% | i
O=C(O)c1ccc(NCc2nc3ccccc3n2Cc2ccccc2)cc1 | -13% | -18%
O=C(Oc1ccccc1/C=C\C(=O)c1cc2ccccc2o1)c1cccc(F)c1 | -6% | -12%
Nc1nonc1OCCOCCOCCOc1nonc1N | 5% | -20%
CC(NC(=O)c1cccc(F)c1)C1CC2CCC1C2 (stereo not drawn) | -12% | -17%
COc1ccc(Nc2ccccc2NC(=O)c2ccccc2Br)cc1 | -3% | -14%
Cc1cccc(N2CC(C(=O)Nc3nnc(SCC(=O)NCC4CCCO4)s3)CC2=O)c1 (stereo not drawn) | -2% | -17%
O=C(NCc1ccco1)C1CC2CCC1C2 (stereo not drawn) | -2% | -10%
COc1cc(NC(=O)COC(=O)/C=C/c2ccc(Cl)cc2Cl)cc(OC)c1 | -8% | -16%
COc1cc2c(cc1OC)CN(C(=O)/C=C/c1cccc([N+](=O)[O-])c1)CC2 | -5% | -18%
FC(F)(F)c1cccc(N/N=C/c2ccccc2)c1 | -6% | -18%
O=C1CC(c2ccccc2Cl)CC(O)=C1C=Nc1ccccc1 (stereo not drawn) | -13% | -14%
O=C(NCc1cccs1)C1CCN(S(=O)(=O)c2ccc(Cl)cc2)CC1 | -6% | 5%
O=C1C=C(c2ccc3ccccc3c2)C[C@@H](c2ccc(Cl)cc2)C1 | -9% | ?
N#Cc1nc(-c2ccco2)oc1N1CCN(Cc2ccccc2)CC1 | -6% | ·
CCc1ccccc1NC(=O)C(=O)c1cc(C)n(-c2ccccc2F)c1C | 0% | -9%
CCN(C(=O)c1cc2c(Cl)nc3ccc(C)cc3c2s1)c1cc(OC)ccc1OC | -10% | -17%
Cc1cc2nc(-c3cccc(Br)c3)c(Cc3ccccc3)n2c(C)c1Br | 2% | 7%
Cc1ccc(NC(=O)c2ccccc2N(C)S(=O)(=O)c2ccccc2)c(C)c1 | -18% | i
COc1cccc(NC(=O)CSc2nc(=O)n(Cc3ccccn3)c3c2CCC3)c1 | -13% | -7%
CC1(C(=O)O)COC(c2ccc(Cl)cc2)OC1 (stereo not drawn) | -7% | -7%
Cc1ccc(C)c(S(=O)(=O)N2CCCCC2CCNC(=O)C(=O)NCc2ccncc2)c1 (stereo not drawn) | -28% | ?
Cc1ccc(Cn2c(C)c(CNCc3ccc(OC(C)C)cc3)c(C(=O)O)c2C)cc1 | -9% | -14%

The results go on:
SMILES | Vaccinia Venus | VACV mCherry inh
O=C(NCCS(=O)(=O)NC1CCCCC1)c1ccc2c(c1)OCO2 | -2% | -15%
CCOC(=O)C1(CCCc2ccccc2)CCN(C(=O)CCn2cncn2)CC1 | -5% | -4%
OC(CNCc1ccccc1)COc1ccccc1 (stereo not drawn) | -5% | i
COc1ccc(CCC(=O)N(c2nnc(-c3cccnc3)s2)C(C)C)cc1 | -4% | i
Cc1ccc(Cl)cc1NC(=O)CC1Sc2ccccc2NC1=O (stereo not drawn) | -8% | -3%
COc1ccc(C(=O)N[C@H](C(=O)Nc2ccc(S(=O)(=O)N3CCOCC3)cc2)C(C)C)cc1 | -3% | -4%
COCCNC(=O)c1cc2c(c(-c3cccc(-c4cc5ccccc5o4)c3)n1)[C@H](CCO)N(S(=O)C(C)(C)C)C2 (stereo partly drawn) | -1% | i
Cc1ccc(NC(=S)Nc2c(C)n(C)n(-c3ccccc3)c2=O)cc1 | -23% | -14%
CCCC(=O)n1nc(-c2ccc(C)cc2)nc1NCc1ccco1 | -14% | -2%
Cc1cccc(C(=O)n2c(=S)nc3cc(C)ccn32)c1 | -20% | i
COc1ccc(NC(=O)C2(C)CCN2C(=O)C(C)C)cc1F (stereo not drawn) | ? | ?
COC(=O)c1cnc(SCc2ccc(C)cc2)n1C | -1% | -2%
CCn1cc([N+](=O)[O-])c(C(=O)N2N=C(c3ccc(Cl)c(Cl)c3)CC2c2ccccc2O)n1 (stereo not drawn) | ? | -29%
COc1ccccc1N1CCN(CC(O)COc2cccc3ccccc23)CC1 (stereo not drawn) | -14%&-7% | -13%
CCN(CC)c1ccc(NS(=O)(=O)c2ccc(-c3coc(C)n3)cc2)c(C)c1 | -10% | -17%
N#Cc1nc(COc2ccccc2F)oc1NCCCn1ccnc1 | -18% | -17%
Cc1[nH]c(=O)[nH]c(=O)c1CSc1nnc([C@H](CC(C)C)NC(=O)OC(C)(C)C)o1 | -2% | ·
CN(c1ccc(F)cc1)S(=O)(=O)c1ccc2[nH]cc(C(=O)O)c(=O)c2c1 | -15% | ·
CCc1ccc(C(=O)CSc2nnc(C3CC3)n2C2CC2)cc1 | -14% | i
CCC(=O)N1CCc2cc(S(=O)(=O)N3CCc4ccccc4C3)ccc21 | -5% | -16%
Cc1ccc2nc(NC(=O)CSc3nccn3-c3ccc(Cl)cc3)sc2c1 | -12% | -1%
CCN(CC(O)CON=C1c2ccccc2-c2ccccc21)S(=O)(=O)c1ccc(Cl)cc1 (stereo not drawn) | -22% | ?
COc1ccc(CC(=O)N/N=C(\C)CC(=O)Nc2ccc3c(c2)OCCO3)cc1OC | -6% | -8%
COc1cc(NC(=O)CSc2nc(C3CC3)nc3ccccc23)cc(OC)c1 | 2% | -4%
Cc1cc2sc3ccccc3c(=O)c2c(C)c1O | -7% | i
COc1ccc(C(C[N+](=O)[O-])c2c(-c3ccccc3)cc3ccccn23)cc1 (stereo not drawn) | -23% | -21%
C[C@@H]1CN([C@@H](C)CO)C(=O)c2cc(N(C)C)ccc2O[C@@H]1CN(C)S(C)(=O)=O | -7% | -1%
CCc1cc2c(=O)n(CC(C)C)cnc2s1 | -19% | -2%
CCN1C(=O)CC(n2c(C)nc3ccccc32)C1=O (stereo not drawn) | -6% | -4%
CN(Cc1ccco1)C(=O)Cn1cc(S(=O)(=O)N2CCCC2)c(S(=O)(=O)N2CCCC2)c1 | -9% | -20%
Cc1ncc(CO)c(/C=N/NC(=S)Nc2cccc(Cl)c2)c1O | ? | ?
CCCCN(C)c1c(C)nc2ccc(C(=O)N(CC)CCN(C)C)cn12 | -3% | 6%
O=C1CCC([N+](=O)[O-])C(c2cccc([N+](=O)[O-])c2)N1 (stereo not drawn) | -10% | -1%
CS(=O)(=O)c1ccc(C(=O)OCC(=O)Nc2ccc(OC(F)(F)F)cc2)cc1[N+](=O)[O-] | -13% | -13%
CN=C1NC(C)(C)C2CCC(C)(CC2)S1 | -10% | -10%
CC1(C)CC(NC(=S)NC2CC2)CC(C)(C)N1 | -9% | i
Cc1nn(Cc2ccccc2)c(C)c1C(=O)NCc1ccccc1F | -4% | 0%
Cc1cc2nc(-c3ccc(OCc4ccc(F)cc4)cc3)cc(C(F)(F)F)n2n1 | -8% | 0%
CCCNNC(=O)C(O)(c1cccc(C)c1)c1cccc(C)c1 | -12% | -9%
